Ecoli growth = blocks Escherichia coli growth; OD600, 23 h; stronger effect = lower value; OD600 absorbance (no concentration beside the values); hit rate 0.21% among 330,000; AID 1053175;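 active = OD600 absorbance below the run mean of sample wells minus 3.6 SD, in any replicate, cut at about 0.56 in these data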;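 also: stock transfer was 300 nL into about 60 µL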
Vif TR-FRET = inhibitors of Vif binding to APOBEC3G peptide, primary screen, biochemical, TR-FRET, GST-Vif 1-94, biotin-A3G peptide, dose response retest (AID 1117319). TR-FRET GST-Vif / biotin-A3G peptide binding; higher % means a stronger effect; test concentration not given here; strong numbers were not always called active. inhibition, %; hits with a dose series show IC50 in µM. hit rate 0.57% among 260,000;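 active = above the screen mean plus three standard deviations and confirmed in dose response; inconclusive = results disagree or hit not tested in dose response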;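 also: Vif residues 1-94 fused to GST binding biotinylated APOBEC3G peptide 110-148; 0% = full assay without inhibitor and 100% = GST in place of GST-Vif; retest series ran down from 100 µM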
UCH37 inh = blocks the human deubiquitinase UCH37; hit rate 0.33% among 330,000; inhibition, % (test concentration not listed); Q9Y5K5; AID 588478; purified proteasome/UCH37, Ub-AMC cleavage fluorescence;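 active = mean of two replicates above 20%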;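 also: 0% = compound-free wells with enzyme and 100% = wells lacking proteasome; stock transfer was 100 nL into about 20 µL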
Target sequence (Q9Y5K5 whole entry, looked up): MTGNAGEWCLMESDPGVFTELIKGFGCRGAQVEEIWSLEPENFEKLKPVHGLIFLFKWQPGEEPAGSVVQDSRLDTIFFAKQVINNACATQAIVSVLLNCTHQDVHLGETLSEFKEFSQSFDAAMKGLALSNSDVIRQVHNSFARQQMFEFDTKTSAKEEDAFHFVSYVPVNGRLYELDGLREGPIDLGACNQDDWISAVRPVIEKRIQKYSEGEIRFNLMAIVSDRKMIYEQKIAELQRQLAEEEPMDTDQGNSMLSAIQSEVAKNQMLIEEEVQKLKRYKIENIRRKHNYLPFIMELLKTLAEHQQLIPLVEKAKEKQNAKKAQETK
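Assay system: Proteasome-bound UCH37. Buffer or medium: pH 7.4 Tris-HCl (50 mM) with ovalbumin, ATP-MgCl2, DTT. Incubation: 30 min preincubation with enzyme, 25 min cleavage at room temperature. Measured by: fluorescence, ex 355 nm, em 460 nm. Read-out basis: percent inhibition. Control set: wells without proteasome as full block, compound-free enzyme plus substrate as uninhibited.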
FGF22 binding = shifts melting point of recombinant human FGF22. AID 651658. Q9HCT0. recombinant FGF22 thermal shift, SYPRO orange fluorescence; percent of sucrose octasulfate shift, DMSO zero. calls only at 9.99 µM. hit rate 1.5% among 340,000;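 active = melting point raised past a set limit in the mean and every replicate; inconclusive = no clear call; three in four hits are not shown here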
Target sequence (Q9HCT0 whole entry, looked up): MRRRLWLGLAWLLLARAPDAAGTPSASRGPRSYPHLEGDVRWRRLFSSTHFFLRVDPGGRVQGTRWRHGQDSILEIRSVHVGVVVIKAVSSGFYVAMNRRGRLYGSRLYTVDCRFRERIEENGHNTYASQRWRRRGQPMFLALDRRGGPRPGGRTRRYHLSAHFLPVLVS
HNF4A DNA FP = change in binding of human HNF4 alpha to DNA. P41235. HNF4a-FITC DNA binding, fluorescence polarization, 1 h. activity change, % at 10 µM. hit rate 0.3% among 360,000; in the data active = activity change above about 30%, passing the limit was not always enough;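 also: controls were the assay level and a saturating level of protein; the project sought stronger binding though the title names inhibitors; some compounds called inactive have numbers as strong as hits; positive values seem to mean higher polarization but the record does not say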
RanGTP-Impb inh = disruptors of Ran-importin-beta complex formation – biochemical, FRET, CFP-Ran, YFP-importin-beta, homogeneous, primary screen; hit rate 1.1% among 300,000; inhibition, % (test concentration not listed); cell-free CFP-Ran/YFP-importin-beta FRET ratio; AID 2216;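 active = most replicates above 15%; inconclusive = exactly half above 15%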;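 also: 0% = DMSO wells and 100% = Ran loaded with GDP instead of GTP; wells of about 40 µL received 100 nL stock; the first replicate is given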
AF4-AF9 inh = inhibitors of human MLL-AF4/AF9 interaction. inhibition, % at 10 µM. hit rate 0.47% among 350,000. AID 651704. P42568. AlphaScreen, biotin-AF4 peptide binding to FLAG-AF9;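 active = every replicate reaching a set inhibition limit, whatever the replicate mean, cut at about 25% in these data; inconclusive = mean inhibition reaches that limit but some replicates miss it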;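 also: 0% = plate neutral control median and 100% = total signal loss; the record names both 10 and 1 µM as test concentration; the first replicate is given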
Target sequence (P42568 whole entry, looked up): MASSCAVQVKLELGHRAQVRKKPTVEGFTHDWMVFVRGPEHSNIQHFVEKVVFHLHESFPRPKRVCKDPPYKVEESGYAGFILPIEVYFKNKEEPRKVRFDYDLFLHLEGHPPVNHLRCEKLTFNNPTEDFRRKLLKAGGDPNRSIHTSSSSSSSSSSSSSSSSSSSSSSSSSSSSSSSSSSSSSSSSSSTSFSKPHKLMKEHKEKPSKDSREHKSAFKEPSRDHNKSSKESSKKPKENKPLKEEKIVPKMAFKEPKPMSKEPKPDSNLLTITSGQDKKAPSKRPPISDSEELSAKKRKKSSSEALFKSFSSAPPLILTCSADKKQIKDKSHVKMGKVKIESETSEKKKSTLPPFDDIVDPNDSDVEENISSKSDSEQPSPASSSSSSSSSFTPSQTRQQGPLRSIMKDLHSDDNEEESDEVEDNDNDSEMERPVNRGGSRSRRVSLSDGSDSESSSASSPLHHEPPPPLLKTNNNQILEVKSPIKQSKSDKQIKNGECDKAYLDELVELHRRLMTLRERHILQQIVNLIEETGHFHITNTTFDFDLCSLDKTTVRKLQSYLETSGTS
Numbers without * were called inactive; i = inactive; ? = inconclusive; · = no result given; & = joins results of further samples. A portion of the library; count on the stated rates, not on these rows.

SMILES	Ecoli growth	Vif TR-FRET	UCH37 inh	FGF22 binding	HNF4A DNA FP	RanGTP-Impb inh	AF4-AF9 inh
Cc1ccc(CNC(=O)CCCn2c(=O)c3ccccc3n(CC(=O)NCc3ccco3)c2=O)cc1	0.67	-1%&-4%	5.0	·	-1.8	7.3	·
Brc1ccc(/C=N/N2CCN(C3c4ccccc4-c4ccccc43)CC2)s1	·	2%	·	·	2.1	8.2	·
Cc1ccc(Nc2ncnc(N)n2)cc1C	0.72	23%	2.5	i	-4.0	3.0	-2.7
Cc1nn(Cc2ccccc2)c2ncccc12	0.67	·	2.8	i	-2.1	6.9	-1.0
CN(C)CCN(C(=O)C1CCN(S(=O)(=O)c2cccs2)CC1)c1nc2ccc(F)cc2s1	0.67	2%	6.2	i	-2.7	1.8	2.3
Cn1cccc1C(=O)NC(=O)COC(=O)CNC(=O)c1ccc(Cl)cc1Cl	0.7	2%	1.2	·	-1.1	3.2	·
CC(=O)Nc1ccc(S(=O)(=O)NCC(=O)OCc2cc(=O)oc3ccc4ccccc4c23)cc1	0.64	0%	-436	·	-2.0	-1.9	·
C[C@H](NC(N)=O)C(=O)Nc1ccc(N2CCOCC2)c(S(=O)(=O)Nc2ccc(Cl)cc2)c1	0.7	·	5.1	i	2.5	·	-2.2
CCOC(=O)C1CCN(S(=O)(=O)c2ccc(OC)c(OC)c2)CC1	0.72	10%	0.8	i	1.4	12	1.5
COc1cc(C(=S)N2CCCCC2)ccc1OCC(=O)Nc1ccc(F)cc1	0.7	2%	2.6	i	3.6	1.2	6.1
O=C(COc1cccc(Cl)c1Cl)NC1CC1	0.64	·	0.9	i	4.4	·	-0.6
COc1ccc(NC(=O)c2cc3ccc(O)cc3o/c2=N\O)cc1	·	1%	·	i	4.7	28*	2.0
O=C(c1cccc([N+](=O)[O-])c1)N1CC2C3C=CC(C3)C2C1 (stereo not given)	0.72	2%	4.5	i	5.1	0.2	0.1
COc1ccc(CC(=O)NNC(=O)c2c(-c3ccccc3Cl)noc2C)cc1OC	0.62	12%	1.3	i	4.9	0.9	·
O=C(Nc1ccc2c(c1)OCCO2)C1c2ccccc2OCC(=O)N1CCc1c[nH]c2ccccc12 (stereo not given)	·	·	·	i	0.8	·	-11
CC(C)Cn1c(=O)oc2ccccc21	0.68	-4%	1.1	i	-0.8	-0.2	-1.4
COc1ccc(OC)c(NC(=O)C2(C)CCN2C(C)C)c1 (stereo not given)	·	·	·	i	0.6	·	3.9
CN(c1ncc(C(F)(F)F)cc1Cl)N1C(=O)c2cccc(N)c2C1=O	0.64	-20%	-7.7	i	-11	0.8	-2.7
Nc1cccc2nc3ccccc3cc12	0.58	12%	-123	·	-17	176*	-0.1
CC(NC(=O)CSc1ncccn1)c1ccc2c(c1)OCO2 (stereo not given)	0.62	-5%	2.8	i	-1.2	·	6.7
COc1ccc(CC(=O)Nc2ccc(-c3nnc(-c4ccccc4)o3)cc2)cc1OC	0.69	-2%	-3.2	i	36*	3.5	-61
O=C(NCc1ccc2c(c1)OCO2)c1ccc(Cl)c(S(=O)(=O)NCc2ccccc2)c1	0.69	1%	5.4	i	-2.4	-2.1	3.3
CC(=O)Nc1ccc(S(=O)(=O)N2CCN(c3nc(NC4CCCC4)c4ccccc4n3)CC2)cc1	0.75	0%	-3.9	·	5.8	6.2	·
O=C(CN(Cc1ccccc1)C(=O)c1csnn1)NCc1ccc2c(c1)OCO2	0.67	16%	2.1	i	0.0	7.8	0.2
O=C1C2C3CCC(C3)C2C(=O)N1Cc1ccccc1 (stereo not given)	·	·	4.0	·	2.1	4.5	·
CCOc1ccc(NC(=O)N2CCC(NC(=O)C(Cc3cccc(F)c3)NC(C)=O)CC2)cc1 (stereo not given)	0.71	-12%	-0.2	i	4.9	1.9	2.9
O=c1[nH][nH]c2c1[C@H](CCc1cccc(Cl)c1)O[C@H](C1CCCC1)C2	·	·	·	i	-0.3	·	0.1
CCOC(=O)N1CCN(C(=O)c2ccc(NS(C)(=O)=O)cc2)CC1	0.68	2%	0.2	i	0.8	0.9	3.7
Cc1ccc(S(=O)(=O)NC(=O)NCCc2ccccc2)cc1	0.7	·	2.6	i	-1.3	1.4	-2.5
Cc1cc(C)cc(C(=O)Nc2ccc(N3CCN(S(C)(=O)=O)CC3)cc2)c1	0.66	-1%	3.3	i	-2.7	0.9	0.5
C(=N\c1nccs1)/c1c[nH]c2ccccc12	·	22%	·	·	7.2	-4.4	·
COc1ccc(Cc2nnc(N/N=C/c3ccccc3O)[nH]c2=O)cc1OC	·	·	·	i	2.4	-0.4	-2.3
CC(C)COc1nc2ccccc2nc1N1CCN(C)CC1	0.66	-5%	-9.6	i	2.1	2.7	-5.2
O=C(CN1CCN(CCOCCO)CC1)N1c2ccccc2Sc2ccc(Cl)cc21	0.72	5%	3.3	·	4.0	-6.7	·
CN(C)c1ccc(NC(=O)COC(=O)CCC(=O)c2ccc(F)cc2)cc1	0.71	5%	4.9	·	5.4	0.0	·
CCCS(=O)(=O)N1CCN=C1SCc1cccc(C)c1	0.69	6%	0.9	·	2.9	0.5	·
CCN(CC)C(=O)C1CCCN(c2ccc([N+](=O)[O-])cc2)C1 (stereo not given)	0.7	2%	10	i	0.9	1.4	2.8
COCCCNC(=O)c1ccc(-c2c(C)noc2C)c2ccoc12	·	·	·	i	-3.0	·	-0.3
Cc1ccc(S(=O)(=O)c2cc3c(=O)n4cccc(C)c4nc3n(CC3CCCO3)c2=N)cc1C (stereo not given)	0.68	-2%	-3.8	i	4.8	137*	·
CNS(=O)(=O)c1cnccc1N1CCN(c2cccc(C(F)(F)F)c2)CC1	0.71	4%	2.8	·	2.0	-2.9	·
CCc1noc(C)c1C(=O)Nc1nc(-c2ccc(NC(C)=O)cc2)cs1	0.63	0%	-1.2	i	-1.1	-3.7	0.6
COc1ccc(NC(=O)CCc2nnc3ccc(N4CCC(C)CC4)nn23)cc1OC	0.67	·	6.9	i	0.8	-0.6	2.4
O=C1C2CCC(C2)C1CN1CCOCC1 (stereo not given)	0.69	-2%	0.1	i	2.3	·	-3.5
O=C(CN1CCN(S(=O)(=O)c2ccc(Cl)cc2)CC1)Nc1ccc2c(c1)CCC2	0.67	-5%	4.3	i	-3.3	3.6	0.0
Cc1cccc(NS(=O)(=O)c2ccc(C)c(C(=O)NNC(=O)c3csc(N4CCOCC4)n3)c2)c1	0.68	·	0.1	i	-0.3	·	-0.6
CCN1CCN(c2ncnc3sc(C(=O)Nc4ccccc4F)c(C)c23)CC1	0.76	-1%	3.7	·	0.5	-0.7	·
O=S(=O)(Nc1ccc(Br)cn1)c1ccc(Cl)s1	0.69	·	-0.5	i	1.2	·	-0.5
CCCN(C(=O)c1cc(CC)c(C)s1)c1c(N)n(Cc2ccccc2)c(=O)[nH]c1=O	0.71	1%	4.4	i	-2.8	2.4	6.9
COCCNc1cc(-c2ccccc2)nc2cc(-c3cccc(F)c3)nn12	0.74	-6%	-228	·	1.3	-0.6	-12
O=C(Nc1ccc(OCC(F)(F)C(F)F)c(C(F)(F)F)c1)c1ccccc1O	0.73	?	-11	·	-5.2	-2.8	·
C=CCn1c(=O)c2c(nc(-n3nc(C)cc3C)n2C)n(C)c1=O	0.7	·	3.7	i	-2.5	5.7	-1.1
CCOc1ccc(CCNC(=O)Nc2ccccc2C)cc1OCC	0.69	·	4.9	i	-0.5	7.8	2.8
CCOc1ccc(OCCC(=O)OCC(=O)Nc2ccc3c(c2)OCCO3)cc1	0.61	-7%	2.1	·	-2.2	-4.6	1.1
Cc1ccnc(SCCn2c(N3CC(C)OC(C)C3)nc3c2c(=O)n(C)c(=O)n3C)n1 (stereo not given)	0.64	-11%	0.2	i	-0.2	6.2	-9.9
CCOc1ccccc1N(CC(=O)Nc1ccccc1C(=O)NCc1ccco1)S(C)(=O)=O	0.65	?	4.4	·	-6.8	-2.9	·
Cc1cc(C2=NNC(=Nc3ccc(S(=O)(=O)N4CCOCC4)cc3)SC2)c(C)n1CC1CCCO1 (stereo not given)	0.72	-5%	7.7	i	4.5	-2.6	-1.6
Cc1c(C(=O)NCCN(C)C)oc2ccc(S(=O)(=O)N3CCC4(CC3)OCCO4)cc12	0.65	0%	1.7	i	2.8	23*	0.4
CCCN(CCC)CCNC(=O)CN1C(=O)COc2ccc(S(=O)(=O)N3CCOCC3)cc21	0.71	·	1.9	i	-5.4	-0.4	-5.7
CN(C)CCNc1nc2sc3c(c2c(=O)n1CCc1ccccc1)CCCCC3	0.6	16%	2.1	i	0.6	2.6	31*
Nn1c(SCC(=O)N2CCOCC2)nnc1-c1cccnc1	0.65	-6%	1.2	i	0.5	·	-6.6

As a short view, part of the list above:
SMILES	Ecoli growth	Vif TR-FRET	UCH37 inh	FGF22 binding	HNF4A DNA FP	RanGTP-Impb inh	AF4-AF9 inh
CCc1noc(C)c1C(=O)Nc1nc(-c2ccc(NC(C)=O)cc2)cs1	0.63	0%	-1.2	i	-1.1	-3.7	0.6
COc1ccc(NC(=O)CCc2nnc3ccc(N4CCC(C)CC4)nn23)cc1OC	0.67	·	6.9	i	0.8	-0.6	2.4

New compounds follow:
SMILES	Ecoli growth	Vif TR-FRET	UCH37 inh	FGF22 binding	HNF4A DNA FP	RanGTP-Impb inh	AF4-AF9 inh
COc1ccc(CN(CCN)C2CC(C)N(C)CC2C)cc1 (stereo not given)	0.6	·	1.6	i	0.2	1.9	4.5
C(=N\n1cnnc1SCc1ccccc1)/c1ccco1	·	18%	·	·	0.6	1.9	·
COC(=O)c1cc2occc2n1Cc1nc(-c2cccc(Cl)c2)oc1C	0.78	0%	3.8	i	4.6	6.9	-0.6
C[C@H](NC(=O)[C@@H]1CCCN1C(=O)[C@@H]1CCCN1C(=O)OC(C)(C)C)c1ccccc1	·	·	·	i	-0.3	·	-5.3
CCOc1ccc2nc(NCCNC(=O)C(C)C)c(C)cc2c1	0.72	20%	-169	·	3.3	-1.7	·
CCNC(=O)c1cccc(NC(=O)CC2SC(N3CCCCC3)=NC2=O)c1 (stereo not given)	0.62	4%	0.2	i	2.1	1.1	-9.4
O=C(CCC(=O)N1CCOc2ccccc21)NC1CCN(Cc2ccccc2)CC1	0.76	·	0.8	i	2.4	2.1	-6.7
Cc1ccc2oc(=O)c(/C=C(\O)CC(C)C)nc2c1	0.7	-4%	2.9	·	2.3	-0.1	·
Cc1cc(N2CCCCCC2)nc(-c2ccccc2O)n1	0.72	-2%	-7.7	·	-3.0	5.3	·
O=C(CN(C1CCCCC1)C1CCCCC1)N1CCc2ccccc2C1	0.62	6%&66%	2.9	·	6.4	-2.8	·
Cn1c(=O)c2c(nc(N3CCCCCC3)n2CC(=O)c2ccccc2)n(C)c1=O	0.72	-1%	-0.5	·	-1.1	8.0	·
N#Cc1nc(-c2ccco2)oc1NCCCN1CCOCC1	0.71	17%	-83	i	-0.6	-0.2	1.6
NS(=O)(=O)c1ccc(CCNS(=O)(=O)c2cccc(C(=O)O)c2)cc1	0.7	·	5.1	i	1.9	6.9	-3.9
COc1cc(/C=C2\C(=N)N3N=C(S(C)(=O)=O)SC3=NC2=O)ccc1OS(=O)(=O)c1ccc(C)cc1	0.71	·	-12	·	-2.6	2.7	4.2
O=C(NNC(=S)Nc1ccc(Cl)c(Cl)c1)c1cccc([N+](=O)[O-])c1	0.64	·	-0.7	·	1.7	-1.1	3.6
COc1ccccc1-n1c(=O)c(C#N)c(-c2ccc([N+](=O)[O-])cc2)c2cc(C(=O)c3ccccc3O)cnc21	0.73	10%	1.4	i	9.5	6.0	10

Taken from above.
Cc1ccc2oc(=O)c(/C=C(\O)CC(C)C)nc2c1 – RanGTP-Impb inh: -0.1
O=C(NNC(=S)Nc1ccc(Cl)c(Cl)c1)c1cccc([N+](=O)[O-])c1 – UCH37 inh: -0.7
